# YopH inh = blocks Yersinia enterocolitica YopH tyrosine phosphatase | fluorescence Ex485/Em525 | inhibition, %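 (about 10 µM by stock and volumes)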 | actives 0.16% (n = 140,000);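 active means inhibition of 50% or more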;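 further: controls were vehicle for no effect and minimum signal wells for full effect; inactives centre near -20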
# Arbovirus anti = blocks arbovirus infection | inhibition, % at 10 µM | actives 0.37% (n = 200,000) | arbovirus infection cell-based antiviral screen;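 active means inhibition from about 30%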;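 further: bluetongue infection of BSR cells; cell survival read as ATP light after 72 h; 0% = infected wells without compound and 100% = uninfected wells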
# Mtb H37Rv = M. tuberculosis H37Rv growth inhibitors, H37Rv strain (AID 1626); inhibition, % at 10 µM; hits with a dose series show IC50 in µM; actives 0.95% (n = 220,000); M. tuberculosis H37Rv growth inhibition; higher % means a stronger effect;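 active means confirmed in a dose series; inconclusive means inhibition above 80% but not taken into the dose series; inactive means below 80% or under 30% at every dose of the series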;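 further: bacteria incubated seven days before Alamar blue readout; 0% = bacteria only wells and 100% = bacteria with antibiotic wells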
# Mtb bLac sens = beta-lactam sensitization of Mtb H37Rv. inhibition, % at 25 µM. actives 0.27% (n = 330,000). M. tuberculosis H37Rv growth with meropenem, percent inhibition; hits of this screen are not shown here;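 active means about 74% or more and at least 40 points above the plate without the antibiotic, then above 30% in a dose series; inconclusive means first-round hits that could not be retested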;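 further: growth measured after seven days incubation then overnight dye step; 0% = bacteria only wells and 100% = bacteria with antibiotic; twin plates without the antibiotic show which effects depend on it; some results filed as inactive read as strong as hits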
# RecA intein inh = inhibitors of M. tuberculosis RecA intein splicing; cell-free RecA intein splicing, fluorescence; P9WHJ3; inhibition, %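 (about 9 µM by stock and volumes)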; actives 0.75% (n = 290,000); AID 2221; in the data active means inhibition above about 30%; inconclusive means no clear call, values can overlap the other calls;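 further: 0% = vehicle wells and 100% = reference inhibitor control wells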
# Target sequence (P9WHJ3 whole entry, looked up): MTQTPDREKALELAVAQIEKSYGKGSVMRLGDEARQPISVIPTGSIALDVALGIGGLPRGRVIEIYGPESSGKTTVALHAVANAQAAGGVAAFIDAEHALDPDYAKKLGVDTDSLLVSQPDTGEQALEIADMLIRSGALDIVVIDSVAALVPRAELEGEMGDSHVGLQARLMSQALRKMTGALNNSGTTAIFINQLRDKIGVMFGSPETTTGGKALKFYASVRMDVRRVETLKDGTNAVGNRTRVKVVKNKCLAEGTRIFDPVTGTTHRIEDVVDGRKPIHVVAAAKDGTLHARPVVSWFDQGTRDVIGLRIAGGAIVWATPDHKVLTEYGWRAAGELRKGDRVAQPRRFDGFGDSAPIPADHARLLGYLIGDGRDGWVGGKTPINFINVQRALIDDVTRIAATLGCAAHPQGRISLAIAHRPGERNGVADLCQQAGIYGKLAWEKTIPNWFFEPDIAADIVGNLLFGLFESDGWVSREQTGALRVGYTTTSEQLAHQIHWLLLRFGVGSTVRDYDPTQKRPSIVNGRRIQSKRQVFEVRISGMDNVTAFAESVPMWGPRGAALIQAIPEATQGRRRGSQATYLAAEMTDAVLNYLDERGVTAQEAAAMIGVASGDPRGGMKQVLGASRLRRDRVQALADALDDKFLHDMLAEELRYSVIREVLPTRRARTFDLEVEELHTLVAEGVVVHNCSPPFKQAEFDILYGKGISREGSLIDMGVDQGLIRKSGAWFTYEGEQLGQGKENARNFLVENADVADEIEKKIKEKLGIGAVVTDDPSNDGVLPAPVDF
# Arbovirus anti repeat = recorded beside Arbovirus anti, whose call it bears; inhibition, %; measured here: 10K subset replicate screen; many hits read low in the repeat;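 first of two repeat runs on a subset; 0% = infected and 100% = uninfected wells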
# Numbers without * were called inactive; ? = inconclusive; . = no result given. Not all compounds are listed; the hit share may differ from the screen's.
SMILES,YopH inh,Arbovirus anti,Mtb H37Rv,Mtb bLac sens,RecA intein inh,others
O=C(O)COc1ccc(/C=N/NC(=O)c2ccc(-c3csc(Nc4ccc(Cl)cc4)n3)cc2)cc1,.,.,6.4%,.,-2.6,
O=C(NNC(=O)C1CCN(c2ncccn2)CC1)c1ccc(F)cc1,.,.,.,-0.3,0.8,
COc1ccc2noc3c2c1C(=O)c1ccccc1-3,.,.,.,63.6,59.9*,
COC(=O)c1cc(OC)c(OC)c(OC)c1[N+](=O)[O-],.,.,3.5%,-0.4,0.1,
CC(C)=NNc1nc2c(c(=O)n(C)c(=O)n2C)n1C,.,.,-3.1%,-0.3,-10.7,
CC(=O)c1ccc(OCC(=O)c2ccc(-c3ccccc3)cc2)cc1,-20.2,-12.8,3.1%,9.9,1.3,
CCc1noc(C)c1C(=O)OC(C)C(=O)Nc1cc([N+](=O)[O-])ccc1OC (stereo not given),.,.,.,0.9,0.2,
CCOC(=O)c1c(NC(=O)COC(=O)Cn2c(C(F)(F)F)nc3ccccc32)sc(C)c1C,-28.4,2.1,3.9%,14.1,-0.6,
COc1nc(-c2ccccc2)cc(-c2ccc3c(c2)OCO3)c1C#N,.,.,-0.1%,16.5,1.7,
Cc1cccc(N2CCN(S(=O)(=O)c3cn(C)cn3)CC2)c1C,.,.,.,-8.8,-0.8,
COc1ccc([N+](=O)[O-])cc1NC(=S)NC(=O)C(C)(C)C,.,-2.6,0.1%,-3.7,-1.3,
COc1cc(OC)c(-c2noc(C(=O)OC(C)(C)C)c2C(=O)OC(C)(C)C)c(OC)c1,-17.2,4.8,-0.8%,-2.9,1.3,
COc1ccc(C(CNC(=O)COc2ccc([N+](=O)[O-])cc2)N2CCCCC2)cc1 (stereo not given),.,.,.,-1.8,1.2,
CCOc1ccc(NCc2ccccc2OCc2cccc(F)c2)cc1,-20.2,-6.2,8.84µM*,97.8,9.5,
CC(=O)Nc1ccc(S(=O)(=O)NC(CC(=O)N(C)Cc2ccccc2)C(C)C)cc1 (stereo not given),-9.3,8.3,-2.5%,-10.5,-0.2,
COc1cccc(-n2c(SC3CCOC3=O)nc3ccccc3c2=O)c1 (stereo not given),3.3,0.8,-5.6%,-2.5,1.7,
CCOC(=O)c1c(C)nc2sc(C(N)=O)c(N)c2c1-c1ccccc1,-2.0,7.1,-0.4%,28.9,-2.5,
O=C(c1cc2c(s1)CCCCC2)N1CCN(c2ncccn2)CC1,5.1,1.5,66.2%,89.2,1.1,
Cc1ccc(S(=O)(=O)c2c(COC(=O)c3cccc(Cl)c3)c(-c3ccccc3)nn2C)cc1,-13.0,-3.6,-0.6%,-9.9,6.6,
CCOc1cc(/C=C(\C#N)c2nc3ccccc3[nH]2)ccc1OC(C)C(=O)O (stereo not given),.,.,.,6.2,-50.1,

# Continued; it opens with the six that closed the last part.
SMILES,YopH inh,Arbovirus anti,Mtb H37Rv,Mtb bLac sens,RecA intein inh,others
CC(=O)Nc1ccc(S(=O)(=O)NC(CC(=O)N(C)Cc2ccccc2)C(C)C)cc1 (stereo not given),-9.3,8.3,-2.5%,-10.5,-0.2,
COc1cccc(-n2c(SC3CCOC3=O)nc3ccccc3c2=O)c1 (stereo not given),3.3,0.8,-5.6%,-2.5,1.7,
CCOC(=O)c1c(C)nc2sc(C(N)=O)c(N)c2c1-c1ccccc1,-2.0,7.1,-0.4%,28.9,-2.5,
O=C(c1cc2c(s1)CCCCC2)N1CCN(c2ncccn2)CC1,5.1,1.5,66.2%,89.2,1.1,
Cc1ccc(S(=O)(=O)c2c(COC(=O)c3cccc(Cl)c3)c(-c3ccccc3)nn2C)cc1,-13.0,-3.6,-0.6%,-9.9,6.6,
CCOc1cc(/C=C(\C#N)c2nc3ccccc3[nH]2)ccc1OC(C)C(=O)O (stereo not given),.,.,.,6.2,-50.1,
Cc1ccccc1NC(=S)NC(NC(=O)COc1ccccc1)C(Cl)(Cl)Cl (stereo not given),-34.4,2.6,-4.6%,-8.2,8.6,
COc1ccc(N2CCN(Cc3cc(OC)c(O)c([N+](=O)[O-])c3)CC2)cc1,-25.9,0.9,1.9%,-5.6,-2.1,
CCOC(=O)N1CCN(C(=O)/C=C/c2ccc(C(C)(C)C)cc2)CC1,.,.,.,7.3,3.0,
O=[N+]([O-])c1cccnc1N1CCCCC1,-40.4,3.0,-6.8%,3.7,-0.7,
Cn1cccc1/C=N/NC(=O)c1cc(-c2cccs2)nc2ccccc12,-38.1,-11.0,1.3%,-10.9,0.7,
CNC(=O)c1cc2c(-c3ccccc3)nn(C)c2s1,.,.,.,0.3,0.5,
COc1ccc(C(C[N+](=O)[O-])n2nc(C)cc2C)cc1 (stereo not given),-1.9,4.4,85.8%,31.9,3.3,
COc1cc(CC(=O)Nc2ccccc2N2CCCCC2)cc(OC)c1OC,.,11.1,0.3%,8.6,2.3,
C/C(=C1\SC(N2CCOCC2)=NC1=O)c1ccccc1,-36.1,8.3,-4.8%,0.5,-2.6,Arbovirus anti repeat=0.9
Cc1ccc(N2CC(c3nc4ccccc4n3C)CC2=O)cc1 (stereo not given),.,.,-5.2%,-5.4,-0.1,
CC(Nc1ncnc2ccccc12)c1ccccc1 (stereo not given),.,.,.,-4.5,-0.7,
Cc1ccc(SCCN2CCC(O)CCC2=O)cc1 (stereo not given),.,.,.,-3.8,-0.3,
CCOC(=O)CC1=NS(=O)(=O)c2ccccc2N1,-33.4,77.3*,-8.3%,-4.0,-0.5,
O=C1CCC(C(=O)N2CCCC(C(=O)c3ccc4c5c(cccc35)CC4)C2)=NN1 (stereo not given),.,-16.8,3.7%,6.2,1.0,
N#Cc1c(N)nc(SCC(=O)OCc2ccccc2)c(C#N)c1-c1ccco1,-40.4,1.9,74.0%,1.1,1.4,
COc1ccc(C2=NN(C(=O)c3cccs3)C(c3ccccc3O)C2)cc1 (stereo not given),.,-32.2,7.1%,56.1,1.9,
CCOC(=O)C(C(=O)OCC)=C1OC(=O)c2ccccc21,-24.3,-0.5,3.7%,2.7,0.4,Arbovirus anti repeat=-0.8
CCc1ccc2[nH]c3nc(N/N=C/c4ccc(O)cc4O)nnc3c2c1,.,.,.,5.7,-3.8,
COc1ccccc1C1/C(=C(/O)c2ccc(Cl)cc2)C(=O)C(=O)N1CCN1CCOCC1 (stereo not given),-13.1,0.1,-5.5%,5.8,2.8,
CCn1ncc(C2=NOC(C(=O)N3CCN(c4ccccc4)CC3)C2)c1C (stereo not given),-24.4,-0.9,-4.7%,-4.3,-0.2,
COc1cc(/C=C2\SC(N3CCc4ccccc4C3)=NC2=O)cc(OC)c1OC,-32.9,-7.6,8.9%,-2.9,-0.3,
O=C(NCc1ccc(F)cc1)C(=O)NCC1CCCN1S(=O)(=O)c1ccccc1 (stereo not given),.,.,.,-0.4,-1.2,
CC1CCN(C(=S)c2ccc(N(C)C)cc2)CC1,.,-1.6,7.3%,14.0,0.5,
Cc1cc(C(=O)Nc2ccccn2)no1,-25.2,3.8,2.8%,-7.3,2.0,
COc1ccc(C(=O)COC(=O)CCn2nnc(-c3cccs3)n2)cc1,6.9,0.9,2.2%,3.2,-1.0,
O=C(CSc1nnc(-c2ccncc2)n1Cc1ccccc1)Nc1nccs1,7.3,1.8,-3.5%,6.4,0.2,
O=c1[nH]c(C2CCN(S(=O)(=O)c3ccc4c(c3)OCCO4)CC2)nc2c1nnn2Cc1c(F)cccc1Cl,.,.,.,50.1,7.2,
Fc1nc(F)c(F)c(NCCCNc2c(F)c(F)nc(F)c2F)c1F,.,-23.1,-4.2%,97.6,5.0,
CCOC(=O)C1CCCN(CCC(=O)Nc2cc(OC)ccc2OC)C1 (stereo not given),.,.,.,7.1,-4.5,
O=C(Nc1cc2c3c(c1)CC(=O)N3CCC2)c1cccc(F)c1,.,.,.,-12.7,13.7,
NC(=O)c1ccc(NC(=O)COC(=O)c2ccc([N+](=O)[O-])cc2)cc1,.,.,.,-2.9,-2.2,
COc1ccccc1Nc1nc(C)c(C(=O)Nc2ccccc2)s1,.,-10.2,4.0%,2.0,17.3,
NC(=O)C1CCN(C(=O)C(=O)c2cn(CC(=O)N3CCCC3)c3ccccc23)CC1,.,.,.,-11.5,6.3,
CCn1c2ccccc2c2cc(/C=N/NC(=O)c3ccccc3C)ccc21,12.6,-12.2,6.8%,0.0,-5.9,
CCCCN(C)CCNC(=O)C1CCCN(S(=O)(=O)c2cccc3nsnc23)C1 (stereo not given),.,.,.,-5.9,-0.9,
CCOc1cc(C2NN=C(c3ccccc3)S2)ccc1OCc1ccc(F)cc1 (stereo not given),-0.6,-3.0,-9.2%,?,0.5,
COc1ccc(N(CC(=O)NCc2ccccc2OC)S(=O)(=O)c2ccccc2[N+](=O)[O-])c(OC)c1,.,7.7,-3.9%,0.5,1.0,
CCCn1nc(NC(=O)C(C)C)c2cc3cc(OC)ccc3nc21,.,.,.,11.6,-125.0,
CCN1C(=O)[C@H]2[C@@H](c3ccc(Cl)cc3)N3C(=O)CN(Cc4ccccc4)C(=O)[C@@]3(C)[C@H]2C1=O,.,.,.,0.5,-1.8,
COc1ccccc1NC(=O)C(C)OC(=O)CCSc1ccc(F)cc1 (stereo not given),.,.,.,1.2,7.1,

# As a working copy, part of the list above.
SMILES,YopH inh,Arbovirus anti,Mtb H37Rv,Mtb bLac sens,RecA intein inh,others
CCOc1cc(C2NN=C(c3ccccc3)S2)ccc1OCc1ccc(F)cc1 (stereo not given),-0.6,-3.0,-9.2%,?,0.5,
COc1ccc(N(CC(=O)NCc2ccccc2OC)S(=O)(=O)c2ccccc2[N+](=O)[O-])c(OC)c1,.,7.7,-3.9%,0.5,1.0,
CCCn1nc(NC(=O)C(C)C)c2cc3cc(OC)ccc3nc21,.,.,.,11.6,-125.0,
CCN1C(=O)[C@H]2[C@@H](c3ccc(Cl)cc3)N3C(=O)CN(Cc4ccccc4)C(=O)[C@@]3(C)[C@H]2C1=O,.,.,.,0.5,-1.8,
COc1ccccc1NC(=O)C(C)OC(=O)CCSc1ccc(F)cc1 (stereo not given),.,.,.,1.2,7.1,

# Remaining list, next part.
SMILES,YopH inh,Arbovirus anti,Mtb H37Rv,Mtb bLac sens,RecA intein inh,others
CCn1cc(C(=O)N2CCN(c3ccc(OC)cc3)CC2)c(=O)c2cc(S(=O)(=O)N3CCOCC3)ccc21,.,.,.,1.6,-1.0,
CCOC(=O)c1nc(Nc2ccc(N3CCOCC3)cc2)c2ccccc2n1,.,.,.,-4.4,8.4,
O=C(O)c1cc(NS(=O)(=O)c2cccc3nsnc23)cc(C(=O)O)c1,.,.,.,15.1,-0.9,
CCOC(=O)C1=C(C)NC(SCC(=O)O)=NC1c1ccccc1 (stereo not given),-40.8,-0.7,1.7%,-1.0,-10.3,
COc1cc(C(C)=O)ccc1OCC(O)CN1CCN(S(=O)(=O)c2ccccc2)CC1 (stereo not given),13.4,-1.4,-7.9%,-3.6,-2.3,
Cc1c(Nc2ncnc3nc[nH]c23)c(=O)n(-c2ccccc2)n1C,-4.6,-0.7,3.0%,-9.7,-6.8,
COc1ccccc1NC(=O)C(C)OC(=O)CCC1CCCCC1 (stereo not given),.,.,.,-11.2,10.5,
CN1CCN(Cc2ccc(OC(F)(F)F)cc2)CC1,5.7,1.8,0.8%,-9.2,-2.4,
CCOc1ccc(-c2c(C(=O)N/N=C/c3c[nH]c4ccccc34)nnn2-c2nonc2N)cc1,.,.,.,1.0,-1.5,
C/C(=N\NC(=O)c1ccc2c(c1)OCO2)c1ccc(C(=O)O)s1,.,-3.3,-3.3%,-2.6,-1.6,
CCN1CCCC(CO)(Cc2ccccc2)C1 (stereo not given),.,-8.7,0.6%,-8.5,2.9,
CN(C(=O)COC(=O)c1ccc2c(c1)NC(=O)CS2)C1CCS(=O)(=O)C1 (stereo not given),-19.1,11.6,-5.0%,-3.2,0.2,
CC1CCCC(NC(=O)C2CCN(C(=O)Nc3ccccc3)CC2)C1C (stereo not given),.,.,.,-12.2,-2.2,
Cc1cccc(S(=O)Cc2ccc(C(=O)N3CCOCC3)o2)c1 (stereo not given),.,.,.,-1.3,-1.5,
COc1ccc(-c2cc(C)no2)cc1S(=O)(=O)N1CCN(c2ccc([N+](=O)[O-])cc2)CC1,.,.,.,-9.6,4.3,
O=C1Nc2ccccc2/C1=N/c1sc2c(c1C(=O)NCCc1ccccc1)CCCC2,1.8,-2.4,.,1.2,16.7,
CCOc1ccc(Nc2nc(Cc3nnc(SCC(N)=O)o3)cs2)cc1,-17.2,-0.6,0.4%,10.8,-0.2,
O=C(O)C[C@H](O)C[C@H](O)/C=C/c1c(C2CC2)nc2ccccc2c1-c1ccc(F)cc1,.,.,-14.2%,.,3.4,
O=C(Nc1ccccc1C(=O)N1CCCCCC1)c1ccc(F)cc1,.,.,.,-15.4,1.6,
COc1ccc(/C(N)=N/OC(=O)c2cccs2)cc1,.,.,3.3%,-8.8,0.5,
COc1ccc(Cl)cc1NC(=O)CN1CCCC1,.,-0.1,0.8%,-3.7,3.2,
O=C(CCn1cnc2ccccc21)N/N=C/c1ccc(O)cc1,-27.3,-2.8,0.2%,-7.3,1.2,
